Bioassay records deposited in PubChem BioAssay by National Center for Advancing Translational Sciences (NCATS).
Six1-Eya2 blk: blocks human Six1 binding to Eya2; Q15475+O00167; AID 651725; activity change, % (test concentration not listed); 360,000 compounds, 0.56% hits; AlphaScreen GST-Six1/His-Eya2 binding, biochemical; active compounds read low; control for the full effect not named in the record; in the data active = activity change below about -65%; inconclusive = about -30% to -65%; inactive = above about -30%; also: % is scaled to controls: 0 for no effect and ±100 for the full control effect
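Homogeneous AlphaScreen proximity assay pairing GST-Six1 with His-tagged Eya2 (added as 5X mix: 250 nM and 500 nM) in 50 mM Tris pH 8.0, 300 mM NaCl, 1 mM TCEP. Glutathione donor and nickel acceptor beads; 1 h, 37 °C, dark.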
CtBP-E1A blk: blocks the CtBP interaction with E1A; AlphaScreen GST-E1A/His-CtBP binding, 1536-well; active compounds read low; control for the full effect not named in the record; activity change, % (no concentration beside the values); 340,000 compounds, 0.49% hits; in the data active means activity change below about -65%; inconclusive means about -30% to -65%; inactive means above about -30%; also: % is scaled to controls: 0 for no effect and ±100 for the full control effect
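AlphaScreen with 125 nM GST-E1A and 125 nM His-CtBP (5X stocks) in Tris pH 8.0, 300 mM NaCl, BSA, Tween 20, TCEP. Compounds preincubated 2 h at 37 deg C, then glutathione donor/nickel acceptor beads added for 1 h at 37 deg C in dark.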
TRPML1 inh: inhibitors of human TRPML1 channel; Q9GZU1; TRPML1-inducible cells, Ca2+ dye fluorescence, FDSS; active compounds read low; inhibition of EC80 agonist-evoked calcium signal; activity change, negative = inhibition, % (concentration not given with the values); 390,000 compounds, 0.02% hits; in the data active means activity change below about -50%; inconclusive means about -30% to -50%; inactive means above about -30%;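 also: stimulus is agonist 54-4 at its EC80 concentration; % is scaled to controls: 0 for no effect and ±100 for the full control effect; the text of the record puts the active cut at -80%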
Target sequence (Q9GZU1 whole entry, looked up): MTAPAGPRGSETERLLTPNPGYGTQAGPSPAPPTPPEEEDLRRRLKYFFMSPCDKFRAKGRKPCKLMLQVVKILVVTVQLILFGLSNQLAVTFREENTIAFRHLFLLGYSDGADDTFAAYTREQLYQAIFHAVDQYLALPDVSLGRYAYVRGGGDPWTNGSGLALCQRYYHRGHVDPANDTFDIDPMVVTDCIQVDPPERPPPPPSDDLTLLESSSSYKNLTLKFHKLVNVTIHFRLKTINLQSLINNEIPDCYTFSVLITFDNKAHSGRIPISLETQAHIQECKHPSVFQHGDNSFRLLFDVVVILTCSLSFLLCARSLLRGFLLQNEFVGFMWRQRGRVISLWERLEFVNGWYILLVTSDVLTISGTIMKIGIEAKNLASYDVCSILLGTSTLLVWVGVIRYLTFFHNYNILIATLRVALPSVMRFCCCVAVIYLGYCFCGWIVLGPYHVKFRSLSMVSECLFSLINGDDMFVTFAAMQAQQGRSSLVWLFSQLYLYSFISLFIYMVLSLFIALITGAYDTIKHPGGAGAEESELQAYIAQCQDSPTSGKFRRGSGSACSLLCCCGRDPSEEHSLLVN
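Calcium fluorescence in TRPML1-DL cells induced overnight with Tet: a 110 s read after compound pin addition, then a 110 s antagonist read after challenge with 54-4 at 4 uM final (EC80).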
PINK1 expr mod: changes PINK1 expression | PINK1 immunofluorescence, high-content cytometry, 24 h | Potency, µM (top dose mostly 76.6 µM), inactives show at the top dose activation (PINK1 increase), usual class: activators | 410,000 compounds, 0.2% hits | AID 624263; active = well fitted activation curve with a large enough effect; inconclusive = small, poorly fitted or top-dose-only effect; inactive = flat fitted curve, though single readings scatter; cell line not stated here;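 also: potency is read from the fitted curve at half-maximal effect; % of control where 0% means no effect; nearly all actives have a fitted effect of over 65% in size; a mitochondrial uncoupler was the plate control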
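Readout is PINK1 immunofluorescence, quantified alongside mitochondrial, cell and nuclear markers by laser-scanning microplate cytometry. Cells from a stable line were exposed to compound titrations (5 concentrations) for 24 hours, with CCCP controls.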
TRPML1 agonist: human mucolipin-1 channel agonism. 410,000 compounds, 0.12% hits. TRPML1-expressing cells, Ca2+ dye fluorescence, FDSS; host cell line not named in the record; reference of the full effect not given here. activation, % (test concentration not listed); in the data active = activation above about 50%; inconclusive = about 30% to 50%; inactive = below about 30%; also: 0% is about no effect; the text of the record puts the active cut at 80%
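Tet-induced TRPML1-DL cells, 1,500 per well, cultured overnight, were loaded with a no-wash Ca2+ dye for 45–90 min. Calcium fluorescence was recorded on the FDSS for 110 s after compound addition, before the EC80 agonist (4 uM 54-4) was added.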
D2 agonist: human D2 receptor agonism in beta-arrestin assay; 360,000 compounds, 0.084% hits; activation, % (no concentration beside the values); AID 624465; DiscoveRx PathHunter D2 beta-arrestin, luminescence, 90 min; 100% = 57 uM dopamine signal; in the data active = activation above about 40%; inconclusive = about 15% to 40%; inactive = below about 15%; also: compound concentration not given in the record; the text of the record calls up to 30% inactive
Target sequence (P14416 whole entry, looked up): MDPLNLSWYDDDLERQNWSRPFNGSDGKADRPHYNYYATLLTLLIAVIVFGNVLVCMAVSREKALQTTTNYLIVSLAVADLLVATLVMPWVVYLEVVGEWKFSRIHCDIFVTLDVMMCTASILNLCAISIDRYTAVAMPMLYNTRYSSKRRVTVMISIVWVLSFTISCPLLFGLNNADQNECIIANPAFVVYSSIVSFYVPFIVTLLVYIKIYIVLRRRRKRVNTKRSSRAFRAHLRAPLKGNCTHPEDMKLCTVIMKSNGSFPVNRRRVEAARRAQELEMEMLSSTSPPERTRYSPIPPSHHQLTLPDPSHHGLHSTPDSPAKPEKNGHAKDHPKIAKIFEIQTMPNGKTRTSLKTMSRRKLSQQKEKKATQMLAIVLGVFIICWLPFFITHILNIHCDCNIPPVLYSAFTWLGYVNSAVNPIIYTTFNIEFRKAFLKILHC
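DiscoveRx PathHunter D2 beta-arrestin cells (2,100/well) attached overnight, then compound-stimulated 90 min at 37 C in HBSS/10 mM HEPES/0.1% Tween-20 buffer; beta-galactosidase complementation read by luminescence after 1 h at ambient temperature. Dopamine 57 uM final (EC100) as control.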
Active calls of the source: *; u = inconclusive; x = no result given; & = joins results of further samples; [ ] = dose if it differs, or a comment.

SMILES	Six1-Eya2 blk	CtBP-E1A blk	TRPML1 inh	PINK1 expr mod	TRPML1 agonist	D2 agonist
O=C(CSc1nc(=O)n(CCCN2CCOCC2)c2c1CCC2)Nc1ccc([N+](=O)[O-])cc1	-5.9	-5.7	6.8	-4.4%	2.0	-1.7
CC1CCCN(S(=O)(=O)c2cccc(C(=O)OCC(=O)N(C)Cc3c(F)cccc3Cl)c2)C1 (stereo not drawn)	4.1	-2.8	-14.3	2.6%	2.4	2.5
CCOC(=O)N1CCN(C(=O)CSc2nnc(-c3cc(OC)ccc3OC)o2)CC1	-2.6	4.0	16.4	-1.1%	-0.7	0.2
Cc1nc(SCC(=O)Nc2c(C)n(C)n(-c3ccccc3)c2=O)n[nH]1	8.3	-1.2	-12.6	2.8%	-1.3	-0.3
CN(CC(=O)Nc1ccc(F)cc1)C(=O)c1cn(-c2ccccc2)nc1-c1cccs1	-7.7	6.1	-8.8	-1.2%	-0.3	-1.0
O=C(N/N=C/c1ccc([N+](=O)[O-])cc1)C(=O)N1CCCC1	-3.6	15.5	-8.3	-2.3%	0.1	-0.7
COc1ccccc1C(=O)N1CCC(C(=O)c2ccc(F)cc2)CC1	1.1	6.6	1.5	0.7%[38.3 µM]	0.8	2.8
COCc1cccc(C2=CC(=O)C[C@H](c3ccc(F)cc3)C2)c1	-5.4	3.5	-1.8	-0.5%	0.8	-1.5
Cc1cccc(NC(=O)c2sc(-c3ccccc3)nc2-c2ccc([N+](=O)[O-])cc2)c1	-1.8	x	11.5	0.5%	1.2	9.0
Cc1ccccc1N1CCN(c2ncnc3c2cnn3Cc2ccc(Cl)cc2)CC1	-5.3	3.6	42.4	0.4%	0.2	-2.8
Cc1c(C=O)c2ccccc2n1CC(=O)N1CCc2ccccc2C1	0.1	2.6	13.9	-1.3%	-1.1	-2.7
CCc1nnc(NC(=O)c2nc(S(=O)(=O)Cc3ccccc3)ncc2Cl)s1	14.3	-1.9	7.8	-1.6%	0.9	1.1
CCc1ccccc1NC(=S)N1N=CCC1c1ccccc1 (stereo not drawn)	0.9	9.3	-1.5	0.7%	-0.8	-4.1
O=C(Nc1cccc2c1[nH]c1ccccc12)C(F)(F)F	2.6	-0.3	-0.5	2.3%	0.1	1.2
CCCN1CCN(CCCNC(=O)c2ccc(CS(=O)c3ccc(OC)cc3)o2)CC1 (stereo not drawn)	-5.9	3.6	-1.1&-15.4	-0.3%&-0.1%	-0.2&-0.6	-1.4
O=C(NCc1ccco1)c1cc(=O)c2ccccc2o1	-11.0	1.1	0.0	1.6%	-0.4	-0.8
O=C(COC(=O)CNC(=O)C1CCCCC1)Nc1ccc(Cl)cc1F	1.2	-1.4	-4.3	0.6%	-0.1	-14.8
Nc1ccc(-c2nc3nc(N)nc(N)c3nc2-c2ccc(N)cc2)cc1	-7.8	-2.5	-11.2	-0.3%	0.0	-5.1
O=C(NC1(C(=O)O)CCCC1)C(Cl)Cl	0.7	6.7	9.4	1.3%	-0.5	2.1
CSc1ncc(Cl)c(C(=O)Nc2c(C(=O)Nc3cccc(Cl)c3)oc3ccccc23)n1	x	x	-10.7	0.8%	-0.8	x
N#CCCN(C(=O)CSc1ccc2c(c1)OCCO2)c1ccc(F)cc1	4.7	-4.3	40.6	-2.5%	-0.3	1.8
C=CCN1[C@H](COCc2ccccc2)C=CS1(=O)=O	5.9	-0.1	-11.8	1.3%	-0.6	-3.8
NC(=O)c1ccccc1OCC(=O)NS(=O)(=O)c1ccc(Cl)cc1	2.6	-4.4	-1.3	3.3%[38.3 µM]	0.0	-1.1
Cc1ccc2[nH]c(=O)c3cc(C(=O)N(CCCOC(C)C)Cc4ccco4)sc3c2c1	-2.0	-10.6	8.1&-15.9	1.8%&3.6%	2.5&2.0	2.4
COc1ccc(OCC(O)CN2CCN(Cc3ccc4c(c3)OCO4)CC2)cc1 (stereo not drawn)	0.0	1.2	-1.1	-1.2%	-0.3	-0.8
C=CCC1(CC=C)CCCN1C(=O)CC1C(=O)NCCN1Cc1cc(OC)cc(OC)c1 (stereo not drawn)	-0.3	1.0	4.7	0.2%	-0.8	0.4
CCCCn1c(N)c(N(CCC(C)C)C(=O)CSc2nc3ccccc3s2)c(=O)[nH]c1=O	-4.1	1.9	0.4	3.1%	-0.6	-1.3
Cc1ccc(N2C(=O)c3[nH]nc(-c4ccc(Cl)cc4)c3C2c2ccc(F)cc2)cc1 (stereo not drawn)	x	x	-7.3	-1.7%	1.7	x
Cc1cccc(N2C(=O)C(O)=C(C(=O)c3cccs3)C2c2ccccc2)n1 (stereo not drawn)	5.4	x	-2.7	1.2%	-0.8	-1.6
Cc1ccc2nc(-c3ccc(NC(=S)NC(=O)C(C)C)cc3)sc2c1	12.4	42.2	-14.8	u	1.3	-1.4
Oc1cccc(Nc2nc(NCC3CCCO3)c3ccccc3n2)c1 (stereo not drawn)	-11.9	5.1	-16.2	-0.9%	0.1	-2.7
Cc1cc(C)c(NC(=O)Nc2csc3c2CCCC3)c(C)c1	x	x	-16.2	0.3%	-0.5	x
O=C(Cn1c(=O)sc2ccccc21)Nc1ccc(S(=O)(=O)N2CCCC2)cc1	-11.6	-7.5	5.8	-2.2%	0.0	-3.9
COc1ccc(NC(=O)[C@@H](NC(N)=O)C(C)C)cc1Cl	2.0	x	10.7	0.4%	0.5	-7.1
Cc1ccc(-c2cc(O)cc3sc(=O)oc23)cc1C	-2.2	x	-11.0	13.3%	0.9	4.9
C=CC[n+]1c(-c2ccc(Cl)cc2Cl)csc1Nc1ccc(NC(C)=O)cc1	u	u	29.7	-1.1%	0.1	-1.6
C(=Cc1cnc2ccccc2n1)c1ccc2c(c1)OCO2	11.8	0.0	-7.4	0.9%	7.8	-3.2
CCNS(=O)(=O)c1ccc(CCC(=O)Nc2cc(Cl)ccc2Oc2ccccc2)cc1	-0.6	0.0	29.4	-0.2%[38.3 µM]	6.6	6.7
C=CCn1cnnc1SCC(=O)N(C)CC1COc2ccccc2O1 (stereo not drawn)	-8.4	-3.6	-8.8	2.6%	-0.6	-2.9
CCn1c(COc2ccccc2)nnc1SCC(=O)c1cccc([N+](=O)[O-])c1	-1.1	8.0	-6.3	x	0.7	-0.7
O=C(Nc1cc(C(F)(F)F)ccc1N1CCOCC1)C1=NN(c2ccccc2)C(=O)CC1	0.9	x	1.9	1.1%	3.3	2.9
CCC(Oc1ccc(C)cc1)C(=O)Nc1ccc(S(=O)(=O)Nc2nccs2)cc1 (stereo not drawn)	-11.0	0.0	6.7	-0.7%	2.2	-3.4
CCn1c(=O)c2cc(C(=O)NCCCN3CCN(c4ccc(F)cc4)CC3)sc2c2ccccc21	x	x	11.2	0.6%	-0.6	x
O=C(Nc1ccncc1)c1ccccc1[N+](=O)[O-]	0.5	-7.2	4.0	-1.0%	0.2	-0.9
COc1cccc(CCNC(=O)c2cnc3sc(N4CCCC4)nn3c2=O)c1	x	x	-24.0	-0.8%	0.6	x

An excerpt from above, limited to TRPML1 agonist:
Structure,TRPML1 agonist
Cc1ccc(-c2cc(O)cc3sc(=O)oc23)cc1C,0.9
C=CC[n+]1c(-c2ccc(Cl)cc2Cl)csc1Nc1ccc(NC(C)=O)cc1,0.1

(continued)
SMILES	Six1-Eya2 blk	CtBP-E1A blk	TRPML1 inh	PINK1 expr mod	TRPML1 agonist	D2 agonist
O=C(CSc1nnc(-c2ccco2)n1Cc1ccccc1)NC(=O)NCc1ccccc1	-7.9	-1.7	-2.5	5.4%	-0.6	-3.6
CCC(Sc1ncccc1Nc1ccccn1)C(=O)O (stereo not drawn)	-0.2	x	20.2	2.0%	0.6	0.0
C/C(=N\Nc1ccccn1)c1ccc(S(=O)(=O)NCc2ccco2)cc1	-21.4	-23.0	33.0	1.7%	4.4	-1.1
COC(=O)CN1C(=O)C(O)(CC(=O)c2ccc(C)cc2)c2cc(Br)ccc21 (stereo not drawn)	-3.1	2.9	4.8	1.8%	-0.2	-3.9
Cn1c(=O)c2c(nc(Cc3ccc(N)cc3)n2C)n(C)c1=O	-1.6	0.4	0.7	2.0%	1.7	2.1
O=C(CSc1nc2c(c(=O)n1-c1ccc(Cl)cc1)SCC2)NCc1ccco1	-5.8	-2.8	13.6	1.5%	1.6	-0.1
C=Cc1ccc(Cn2c(C(=O)O)c(CNCc3cc(Br)ccc3OC)c3ccc(C)cc32)cc1	x	x	-15.7	1.0%	2.4	x
O=C(CCN1CCCCC1)Nc1cccc(Br)c1	4.2	-9.4	-4.5	1.6%	0.3	-4.6
COc1ccc(N=Cc2ccc(N(CCC#N)CCC#N)cc2)cc1	2.6	1.7	4.7	2.2%	-0.3	1.0
CC(=O)c1ccc(NC(=O)COC(=O)c2c3c(nc4ccccc24)/C(=C\c2cccs2)CCC3)cc1	13.8	10.0	16.8	6.4%	0.7	1.0
CN(CC(=O)Nc1cccc(F)c1)C(=O)c1ccccc1OCC(=O)Nc1cccc(C(F)(F)F)c1	6.0	6.4	6.2	24.7%	0.3	-1.2
CCc1cc2c(=O)c(-c3ccc(F)cc3)c(C)oc2cc1OCC(=O)O	-0.1	x	11.0	1.5%	0.3	3.3
CC1(C)Cc2ccccc2-c2nnc(SCc3ccccc3)n21	-2.6	8.4	-1.1	x	0.8	1.7
COc1ccc(CO[C@@H]2O[C@H](CO)[C@@H](O)[C@H](O)[C@H]2NC(C)=O)cc1OC	9.2	x	-1.9	-1.1%	0.3	-0.2
CC(C)(C)c1ccc(OCC(=O)Nc2c(C(=O)c3ccc(F)cc3)oc3ccccc23)cc1	x	x	-5.0	1.6%	1.7	x
CCOC(=O)c1cnc2ccc(F)cc2c1Nc1ccc2c(c1)OCCO2	-6.2	-22.7	-7.1	3.6%	-0.2	-3.1
Cc1ccc(C)c(NC(=O)Cn2cc(C(=O)c3cccs3)c3ccccc32)c1	x	x	3.3	-0.1%	0.8	x
CCOc1ccc(-c2nnc(SCC(=O)NCCc3ccc(OC)c(OC)c3)nc2-c2ccc(OCC)cc2)cc1	x	x	4.0	-0.6%	-0.1	x
CN(C)S(=O)(=O)c1ccc(N2CCCC2)c(C(=O)N2CCN(S(=O)(=O)c3ccc(F)c(F)c3)CC2)c1	4.1	-5.0	4.2	-0.9%	0.6	-0.1
Clc1ccc(-n2nnnc2-c2cnc(-c3ccncc3)nc2-c2cccs2)cc1	-15.3	-4.1	38.7	-2.5%	1.6	-0.5
CC1CCN(C(=O)CNC(=O)c2ccc(Cl)cc2Cl)CC1	7.2	-3.6	0.9	-0.1%	-0.5	0.2
Cc1ccc(NC(=O)N(Cc2cn(C)c3ccccc23)C2CCCCC2)cc1C	x	x	11.6	-0.3%	-0.1	x

Taken from above:
Clc1ccc(-n2nnnc2-c2cnc(-c3ccncc3)nc2-c2cccs2)cc1 in Six1-Eya2 blk: -15.3
Cc1ccc(NC(=O)N(Cc2cn(C)c3ccccc23)C2CCCCC2)cc1C in TRPML1 inh: 11.6
